Bfl-1 A1 inh – inhibitors of the anti-apoptotic protein A1, read as caspase activation. MEF A1-2A-BIM cells, Caspase-Glo 3/7 luminescence, 3 h; percent of clofoctol response, vehicle zero. caspase activation, % (concentration not given with the values). hit rate 0.066% among 330,000. AID 2462;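 active means over half of replicate activation scores above 10%, or exactly half above 10 with the replicate mean above 10; inconclusive means replicate mean below 10 yet half the replicates above 10; inactive means over half of replicates below 10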;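 further: wells of about 30 µL received 50 nL stock; many hits fall short of the cut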
Beta apoptosis – beta cell apoptosis inhibition. AID 435005. INS-1E cytokine-induced death, ATP luminescence, 48 h; percent of positive-control rescue, neutral wells zero. hit rate 0.8% among 300,000. protection from apoptosis, % (test concentration not listed);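 active means all replicates at 75% or more, or half of them and the mean; inconclusive means half reach 75% but not the mean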;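 further: 0% = cytokine-treated negative control wells and 100% = positive control rescue; higher means more ATP so stronger rescue from cytokine killing; wells of about 40 µL received 100 nL stock; the first replicate is given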
Calb FLC – C. albicans growth modulation with fluconazole | C. albicans CaCi-2 (fluconazole-resistant clinical isolate) + fluconazole, Alamar Blue growth, 48 h | growth inhibition, % (concentration not given with the values) | hit rate 0.57% among 300,000;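 active means most replicates above 75%; inconclusive means exactly half above 75%; inactive means most below 75%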;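 further: all wells also contain fluconazole at 8 µg/ml as a sub-toxic cotreatment; 0% = median of DMSO wells and 100% = median of geldanamycin control wells; wells of about 8 µL received 7.5 nL stock; the first replicate is given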
UCH37 inh – inhibitors of human deubiquitinating enzyme UCH37. purified proteasome/UCH37, Ub-AMC cleavage fluorescence. inhibition, % (test concentration not listed). hit rate 0.33% among 330,000. AID 588478;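 active means mean of two replicates above 20%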;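 further: 0% = compound-free wells with enzyme and 100% = wells lacking proteasome; stock transfer was 100 nL into about 20 µL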
Target sequence (Q9Y5K5 whole entry, looked up): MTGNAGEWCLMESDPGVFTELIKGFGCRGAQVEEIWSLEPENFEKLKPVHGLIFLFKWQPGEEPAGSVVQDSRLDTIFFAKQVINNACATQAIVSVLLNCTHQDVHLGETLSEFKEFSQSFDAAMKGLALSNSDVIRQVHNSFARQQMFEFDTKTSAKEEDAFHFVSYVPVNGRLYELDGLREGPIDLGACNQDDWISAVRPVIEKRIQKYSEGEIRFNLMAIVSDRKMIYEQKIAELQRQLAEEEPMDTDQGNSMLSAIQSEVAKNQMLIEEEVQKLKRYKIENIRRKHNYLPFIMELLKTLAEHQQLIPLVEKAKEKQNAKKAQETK
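System: Proteasome-associated human UCH37 deubiquitinase; Input: 0.15 nM proteasome in added enzyme buffer; Also added: Ub-AMC substrate from 1 µM stock; Incubation: 30 min compound-proteasome preincubation then 25 min substrate reaction, room temperature; Detection: fluorescence, ex 355 nm, em 460 nm; Read-out: % inhibition of Ub-AMC cleavage fluorescence; Benchmarks: no-proteasome and no-compound wells.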
LANA-H2B inh – blocks KSHV LANA binding to histone H2A/H2B. inhibition, % (no concentration beside the values). hit rate 0.6% among 320,000. cell-free LANA-H2A/H2B peptide, fluorescence polarization. Q9QR71; in the data active means inhibition mostly above about 10%, no sharp cut-off; inactive means mostly below about 6.7%;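 further: stock transfer was 7.5 nL into about 10 µL; 0% = median of vehicle wells and 100% = median of positive control wells; one replicate is shown; the record names a cut of 25% in any replicate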
RanGTP-Imp inh – disruptors of Ran-importin-beta complex formation – biochemical, FRET, CFP-Ran, YFP-importin-beta, homogeneous, primary screen | cell-free CFP-Ran/YFP-importin-beta FRET ratio | inhibition, % (concentration not given with the values) | hit rate 1.1% among 300,000;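 active means most replicates above 15%; inconclusive means exactly half above 15%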;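 further: 0% = DMSO wells and 100% = Ran loaded with GDP instead of GTP; wells of about 40 µL received 100 nL stock; the first replicate is given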
T cruzi repl – T. cruzi replication inhibition; inhibition, % (no concentration beside the values); T. cruzi beta-gal in NIH3T3, luminescence, 90 h; hit rate 1.4% among 300,000;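 active means mean inhibition across valid replicates above about 55%, limit read from the data; inconclusive means mean below that limit but half or more replicates reach it; inactive means mean below it, under half of replicates reach it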;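 further: signal also drops with host cell toxicity which is not excluded here; 0% = plate median of DMSO wells and 100% = zero luminescence signal; higher percent means less beta-gal luminescence so fewer parasites; stock transfer was 50 nL into about 50 µL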
Beta2AR agonist – activates human beta-2 adrenergic receptor causing internalization; P07550; Am2.2-beta2AR cells, FAP receptor internalization, flow cytometry; reference of the scale not given here; response, % (no concentration beside the values); hit rate 0.43% among 340,000; AID 504454;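 active means response above a set limit, near 3 SD of response in nonfluorescent compounds, cut at about 42% in these data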;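 further: stock transfer was 100 nL into about 11 µL; a reference agonist was the positive control; negative values mostly stem from fluorescent compounds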
Target sequence (P07550 whole entry, looked up): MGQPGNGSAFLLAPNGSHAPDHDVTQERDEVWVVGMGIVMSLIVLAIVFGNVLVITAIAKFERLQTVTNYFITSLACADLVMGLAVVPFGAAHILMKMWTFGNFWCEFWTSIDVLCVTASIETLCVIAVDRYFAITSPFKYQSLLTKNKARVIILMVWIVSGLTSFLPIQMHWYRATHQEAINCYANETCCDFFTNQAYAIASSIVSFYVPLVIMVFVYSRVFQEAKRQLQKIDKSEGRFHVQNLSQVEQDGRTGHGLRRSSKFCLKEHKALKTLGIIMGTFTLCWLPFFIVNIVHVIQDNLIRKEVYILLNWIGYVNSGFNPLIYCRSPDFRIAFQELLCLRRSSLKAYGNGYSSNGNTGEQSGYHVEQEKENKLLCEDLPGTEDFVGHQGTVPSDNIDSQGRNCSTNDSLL
Starred values were filed as active, the others as inactive; i = inactive; ? = inconclusive; nt = no result given.

SMILES | Bfl-1 A1 inh | Beta apoptosis | Calb FLC | UCH37 inh | LANA-H2B inh | RanGTP-Imp inh | T cruzi repl | Beta2AR agonist
Cc1cccc(OCCC(=O)NNC(=O)c2ccoc2C)c1 | 2.0 | -1.1 | nt | 0.5 | -7.1 | nt | nt | -4.7
CCOC(=O)C1CCN(C(=O)c2ccc(Cl)c(S(=O)(=O)N3CCCC3)c2)CC1 | -1.2 | -14.4 | 2.1 | -0.5 | -1.6 | -2.8 | -8.2 | 3.9
CCOC(=O)N1CCC(NC(=O)c2cc3cc4cc(OC)ccc4nc3o2)CC1 | 0.4 | 8.4 | -15.1 | -253.7 | -3.0 | 21.0* | 9.2 | 9.1
COc1ccc(/C=C/CN2CCCC(C(=O)c3ccc(OC)c(F)c3)C2)cc1 (stereo unspecified) | -0.2 | 2.9 | -44.0 | -0.4 | -2.7 | 5.5 | 47.7 | 10.3
Cc1cccc(-n2c(CNC(=O)Cc3ccccc3)n[nH]c2=S)c1 | -0.2 | -6.7 | 7.6 | 0.7 | -3.1 | -2.8 | -2.9 | 1.1
COc1cccc(OC)c1C(=O)NC(=S)N1CCN(c2ccc(C(F)(F)F)cc2[N+](=O)[O-])CC1 | 0.1 | 3.4 | -22.3 | 3.3 | -4.3 | 2.8 | 21.3 | -1.4
CCOc1ccc(-c2[nH]ncc2Oc2ccccc2OCC)c(O)c1 | -0.5 | 5.5 | -0.9 | -0.4 | -0.8 | 2.5 | 7.8 | 3.4
O=C(Nc1cccnc1N1CCOCC1)c1cccs1 | 1.3 | -1.6 | 0.2 | 5.4 | 3.7 | -4.7 | 10.6 | -1.6
CC(=O)c1ccc(NCC2COc3ccccc3O2)c([N+](=O)[O-])c1 (stereo unspecified) | 0.3 | 0.3 | 10.3 | -0.3 | -1.0 | 6.2 | -1.3 | -11.6
CCOC(=O)C1(CC2CC2)CCN(Cc2cnc(N(C)C)s2)CC1 | -0.4 | -0.8 | -4.4 | 2.3 | -0.2 | 2.7 | 45.4 | 7.3
COc1ccccc1N1CCN(C(=O)c2cc(-c3ccccc3)on2)CC1 | -0.5 | 2.1 | 3.3 | 3.2 | -2.8 | 2.2 | 10.3 | -4.6
COc1ccc(-c2c(C)oc3c(CN4CCCCC4C)c(O)ccc3c2=O)cc1 (stereo unspecified) | 0.5 | 0.5 | 5.1 | i | 4.5 | -0.3 | -5.1 | -5.9
Nc1cc(N)nc(SCc2cccnc2)n1 | 0.3 | -2.8 | 2.3 | 0.6 | -1.5 | -0.9 | -11.1 | -6.8
CCOc1ccc(C2C(C(=O)Nc3ccccc3)=C(C)N=c3s/c(=C/c4cccc(OCC(=O)O)c4)c(=O)n32)cc1 (stereo unspecified) | 0.0 | -2.6 | 3.8 | nt | -5.7 | 1.2 | -15.9 | 0.2
O=C(c1ccc(COc2ccc(Cl)cc2)o1)N1N=C(C(F)F)CC1(O)C(F)F (stereo unspecified) | -0.4 | 7.2 | -0.8 | 0.5 | -0.4 | 0.9 | 16.6 | 12.2
CNC(=S)N/N=C/c1cc(C)ccc1C | 0.0 | 1.1 | -20.8 | nt | -0.3 | -1.4 | 0.9 | 18.6
CCNc1nc(NCC)nc(SCCOC(=O)c2ccccc2)n1 | -1.1 | 0.9 | 3.6 | 3.2 | 2.7 | 3.6 | 9.5 | -5.0
COc1cccc2sc(N3CCN(C(=O)c4ccco4)CC3)nc12 | -1.6 | -1.3 | -4.5 | 2.5 | 0.9 | 2.8 | 9.3 | -0.3
CCOC(=O)/C(C#N)=N/Nc1c(C)n(C)n(-c2ccccc2)c1=O | 0.0 | 4.2 | -4.7 | 11.1 | 1.7 | -4.2 | 2.2 | 12.1
Cc1ccccc1Cn1nc(C)c(NC(=O)c2cc(-c3cccs3)on2)c1C | 0.3 | 6.2 | 4.4 | -1.4 | 0.1 | 0.4 | -6.4 | 2.2
COCCCNC(=O)C(=O)NCC(c1ccco1)N1CCN(c2ccc(OC)cc2)CC1 (stereo unspecified) | 0.3 | 4.0 | -2.3 | 2.9 | -1.0 | 4.8 | -1.9 | -9.1
CCOC(=O)c1cc(C#N)c(N2CCN(C(=O)c3ccccc3)CC2)nc1C(F)(F)F | 0.7 | 0.3 | 2.7 | 5.2 | 0.2 | 4.3 | 17.6 | -1.5
Cn1nc(C(F)(F)F)c2cc(C(=O)Nc3ccc(C(F)(F)F)cc3)sc21 | -0.6 | 35.3 | 22.7 | 1.3 | 4.2 | 3.3 | 41.8 | 11.7
CCNC(=O)N1CCN(CCCC(c2ccc(F)cc2)c2ccc(F)cc2)CC1 | -0.8 | -4.1 | nt | 2.9 | -0.8 | nt | nt | 7.4
CN1CCN(S(=O)(=O)c2ccc(Oc3ccc(Br)cc3F)nc2)CC1 | 1.5 | nt | -8.4 | 3.2 | -21.4 | 1.0 | 8.2 | -11.3
CC(=O)c1ccc([C@H]2C[C@@]34CN(C(=O)OC(C)(C)C)S(=O)(=O)[C@H]3C[C@H]2O4)cc1 | 0.6 | 0.2 | 1.0 | 2.5 | 8.5 | -3.0 | -33.8 | 11.6
O=C(c1cc([N+](=O)[O-])ccc1Cl)N1CCN(c2ccc([N+](=O)[O-])cc2)CC1 | -0.2 | 8.3 | 0.5 | 6.8 | -4.2 | -0.7 | 0.5 | 8.7
COc1ccc(C(=O)N/N=C/c2ccc3cccc(OCc4ccccc4)c3n2)cc1 | 1.0 | 10.3 | 5.0 | nt | -0.2 | 1.7 | 30.5 | 38.5
CCCCn1c(=O)c2ccccc2n2c(=S)[nH]nc12 | 0.1 | 2.2 | -2.9 | 1.4 | 2.5 | ? | 6.7 | 9.2
N=c1c2c(n(Cc3ccc([N+](=O)[O-])cc3)c3c1CCC3)CCCC2 | 0.2 | 3.8 | -4.7 | 4.0 | 0.1 | -1.9 | 40.5 | 1.5

The closing 5 compounds of the section above lead into the next.
SMILES | Bfl-1 A1 inh | Beta apoptosis | Calb FLC | UCH37 inh | LANA-H2B inh | RanGTP-Imp inh | T cruzi repl | Beta2AR agonist
CC(=O)c1ccc([C@H]2C[C@@]34CN(C(=O)OC(C)(C)C)S(=O)(=O)[C@H]3C[C@H]2O4)cc1 | 0.6 | 0.2 | 1.0 | 2.5 | 8.5 | -3.0 | -33.8 | 11.6
O=C(c1cc([N+](=O)[O-])ccc1Cl)N1CCN(c2ccc([N+](=O)[O-])cc2)CC1 | -0.2 | 8.3 | 0.5 | 6.8 | -4.2 | -0.7 | 0.5 | 8.7
COc1ccc(C(=O)N/N=C/c2ccc3cccc(OCc4ccccc4)c3n2)cc1 | 1.0 | 10.3 | 5.0 | nt | -0.2 | 1.7 | 30.5 | 38.5
CCCCn1c(=O)c2ccccc2n2c(=S)[nH]nc12 | 0.1 | 2.2 | -2.9 | 1.4 | 2.5 | ? | 6.7 | 9.2
N=c1c2c(n(Cc3ccc([N+](=O)[O-])cc3)c3c1CCC3)CCCC2 | 0.2 | 3.8 | -4.7 | 4.0 | 0.1 | -1.9 | 40.5 | 1.5
O=C(COC(=O)c1ccccc1C(=O)c1ccc(Cl)cc1)NC(c1ccccc1)c1ccccc1 | 0.5 | -0.2 | 23.6 | -1.4 | -1.1 | 5.7 | 27.6 | -1.7
CC(=O)c1cnc2nc(C)nn2c1C | -1.1 | -3.5 | -6.0 | 2.0 | -5.5 | 0.6 | 1.3 | 0.9
CCOc1ccc(S(=O)(=O)NCCCN2CCOCC2)c2ccccc12 | 0.7 | -9.9 | -4.8 | 1.7 | 1.7 | 8.4 | -1.8 | -7.8
CCOc1ccccc1Nc1nnc(SCC(=O)Nc2cc(C)on2)s1 | -1.0 | 0.6 | 7.8 | 5.2 | -6.0 | 0.2 | 14.9 | 3.7
CCc1ccccc1Nc1nn2c(=O)c3ccc(C(=O)NCc4ccccn4)cc3nc2s1 | 0.9 | 8.8 | -4.2 | -14.2 | -0.5 | -1.1 | 37.4 | -0.6
CN(C)CCNC(=O)Cc1ccc([N+](=O)[O-])cc1 | 0.5 | nt | -2.0 | 1.1 | 2.3 | 3.1 | 19.6 | -8.8
NCCCC[C@H]1CNC(=S)N1CCc1cc(C(F)(F)F)cc(C(F)(F)F)c1 | -0.1 | 3.7 | 11.2 | 6.4 | -3.2 | 3.4 | 3.7 | -2.1
O=C(O)Cc1sc(N/N=C\c2ccncc2)nc1-c1ccccc1 | -0.4 | 8.2 | 4.7 | nt | -1.4 | -2.4 | -7.7 | -1.6
COc1ccc(Cl)cc1NC(=O)CSc1ncnc2c1oc1ccccc12 | 0.3 | -4.4 | -18.6 | 4.6 | 4.2 | -3.9 | -18.0 | 10.9
N/C(=N\OC(=O)c1ccncc1)c1cccc([N+](=O)[O-])c1 | -0.1 | -0.3 | 10.0 | nt | 0.5 | 3.2 | -17.1 | 3.5
CC(=O)Nc1ccc(S(=O)(=O)N(C)S(=O)(=O)c2ccc(F)cc2)cc1 | -0.6 | -0.9 | -24.7 | 7.2 | 1.4 | -4.3 | 7.7 | -13.6
CC(=O)c1c(C)[nH]c(C(=O)Nc2nc(C)cs2)c1C | -7.6 | 2.3 | -9.1 | 7.9 | -5.7 | -1.4 | -2.1 | 5.4
COc1cc(C(=O)Nc2cc(C(F)(F)F)ccc2Cl)cc(OC)c1OC | 0.4 | 7.6 | -6.7 | 1.9 | 0.7 | -4.1 | -0.7 | -6.3
COc1ccc(NC(=O)CCNC(=O)Cn2cnc3ccccc3c2=O)c(OC)c1 | 0.0 | -1.0 | 5.2 | 1.7 | -4.0 | -2.3 | -7.5 | 2.1
O=C(NCCNC(=O)c1ccccc1Cl)c1ccco1 | 1.0 | nt | 6.4 | 1.2 | 10.2 | 2.5 | -10.7 | -7.0
Oc1ccc(C(=S)N2CCCCC2)cc1 | 1.0 | -1.8 | nt | -1.7 | -1.3 | -2.6 | -7.6 | -5.7
O=C1CC[C@@H](O)CCN1CC[C@H](Sc1ccccc1)c1ccccc1 | -0.1 | -0.8 | 2.9 | 0.5 | 1.8 | ? | 0.2 | 1.4
Cc1ccc(OCc2nnc(NC(=O)c3ccco3)s2)c(C)c1 | -0.3 | nt | 2.9 | -0.9 | -0.1 | -5.8 | -0.2 | -19.7
Cn1ncc2c(=O)n(CC(=O)NC34CC5CC(CC(C5)C3)C4)cnc21 | 0.3 | -2.0 | nt | -0.3 | 5.6 | nt | nt | 0.8
Cc1cccc(NCC(=O)N/N=C\c2cccn2C)c1 | -1.0 | nt | -1.5 | nt | -2.6 | 4.0 | -9.9 | -9.1
CCOC(=O)C(C)Sc1nnc(Cc2cc(=O)[nH]c(=O)[nH]2)n1-c1cccc(OC)c1 (stereo unspecified) | -0.1 | nt | 0.1 | 8.0 | -0.8 | -1.0 | 3.3 | -6.7
Cc1cc(C)nc(N2CCCC(C(=O)NCCc3ccc(F)cc3)C2)n1 (stereo unspecified) | 1.7 | 8.5 | 0.7 | 1.3 | 3.0 | 4.2 | 9.6 | -2.4
